E coli growth – inhibitors of Escherichia coli growth. OD600, 23 h; active compounds read low. OD600 absorbance (concentration not given with the values). 0.21% of 330,000 active;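 active = OD600 absorbance below the run mean of sample wells minus 3.6 SD, in any replicate, cut at about 0.56 in these data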;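 also: stock transfer was 300 nL into about 60 µL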
Ecoli rRNA inh – inhibits bacterial ribosomal RNA function over humanized ribosomes; E. coli WT GFP vs humanized-ribosome RFP mutants, fluorescence, 24 h; active compounds read low; DMSO median 0, no signal -100; GFP signal change (wild-type ribosome), % (concentration not given with the values); 1.6% of 350,000 active; AID 720706;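 active = significant combined selectivity score with lowered wild-type GFP, culture density cut under 30%, mutant RFP and density less affected; inactive = any of these conditions unmet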; also: one replicate is shown; some compounds called inactive have numbers as strong as hits
Beta apoptosis – beta cell apoptosis inhibition | 0.8% of 300,000 active | AID 435005 | protection from apoptosis, % (no concentration beside the values) | INS-1E cytokine-induced death, ATP luminescence, 48 h; percent of positive-control rescue, neutral wells zero;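 active = all replicates at 75% or more, or half of them and the mean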;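 also: 0% = cytokine-treated negative control wells and 100% = positive control rescue; higher means more ATP so stronger rescue from cytokine killing; wells of about 40 µL received 100 nL stock; the first replicate is given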
FGF22 binding – binders of recombinant human FGF22 by thermal shift. Q9HCT0. SYPRO orange fluorescence; percent of sucrose octasulfate shift, DMSO zero. calls only at 9.99 µM. AID 651658. 1.5% of 340,000 active;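 active = melting point raised past a set limit in the mean and every replicate; three in four hits are not shown here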
Target sequence (Q9HCT0 whole entry, looked up): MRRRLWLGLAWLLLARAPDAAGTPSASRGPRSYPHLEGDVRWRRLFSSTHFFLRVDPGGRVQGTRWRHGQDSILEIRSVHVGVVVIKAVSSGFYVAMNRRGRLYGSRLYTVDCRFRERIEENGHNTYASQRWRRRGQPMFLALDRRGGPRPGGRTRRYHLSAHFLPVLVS
UCH37 inh – inhibitors of human deubiquitinating enzyme UCH37. inhibition, % (no concentration beside the values). Q9Y5K5. purified proteasome/UCH37, Ub-AMC cleavage fluorescence. 0.33% of 330,000 active;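 active = mean of two replicates above 20%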;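 also: 0% = compound-free wells with enzyme and 100% = wells lacking proteasome; stock transfer was 100 nL into about 20 µL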
Target sequence (Q9Y5K5 whole entry, looked up): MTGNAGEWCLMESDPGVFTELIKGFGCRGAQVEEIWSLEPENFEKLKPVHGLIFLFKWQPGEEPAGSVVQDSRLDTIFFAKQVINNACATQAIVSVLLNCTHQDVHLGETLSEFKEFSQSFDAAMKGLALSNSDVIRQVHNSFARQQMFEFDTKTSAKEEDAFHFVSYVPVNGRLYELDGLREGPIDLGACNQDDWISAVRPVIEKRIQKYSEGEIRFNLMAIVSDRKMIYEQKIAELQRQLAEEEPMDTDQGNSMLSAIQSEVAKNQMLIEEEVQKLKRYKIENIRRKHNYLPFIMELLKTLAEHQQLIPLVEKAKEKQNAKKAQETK
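Test system – human UCH37 enzyme supplied as purified proteasome complex · Incubation – 30 min preincubation with enzyme, 25 min cleavage at room temperature · Detection – AMC fluorescence from Ub-AMC cleavage, excitation 355 nm, emission 460 nm · Benchmarks – no-proteasome wells (full inhibition) and compound-free wells (no inhibition)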
A1 inh – inhibitors of the anti-apoptotic protein A1, read as caspase activation; caspase activation, % (test concentration not listed); MEF A1-2A-BIM cells, Caspase-Glo 3/7 luminescence, 3 h; percent of clofoctol response, vehicle zero; 0.066% of 330,000 active; AID 2462;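 active = over half of replicate activation scores above 10%, or exactly half above 10 with the replicate mean above 10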;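 also: wells of about 30 µL received 50 nL stock; many hits fall short of the cut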
T cruzi repl – T. cruzi replication inhibition; T. cruzi beta-gal in NIH3T3, luminescence, 90 h; inhibition, % (concentration not given with the values); 1.4% of 300,000 active; AID 1885;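 active = mean inhibition across valid replicates above about 55%, limit read from the data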;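 also: signal also drops with host cell toxicity which is not excluded here; 0% = plate median of DMSO wells and 100% = zero luminescence signal; higher percent means less beta-gal luminescence so fewer parasites; stock transfer was 50 nL into about 50 µL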
AF4-AF9 inh – MLL-AF4/AF9 protein interaction inhibition; P42568; AlphaScreen, biotin-AF4 peptide binding to FLAG-AF9; inhibition, % at 10 µM; 0.47% of 350,000 active;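 active = every replicate reaching a set inhibition limit, whatever the replicate mean, cut at about 25% in these data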;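 also: 0% = plate neutral control median and 100% = total signal loss; the record names both 10 and 1 µM as test concentration; the first replicate is given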
Target sequence (P42568 whole entry, looked up): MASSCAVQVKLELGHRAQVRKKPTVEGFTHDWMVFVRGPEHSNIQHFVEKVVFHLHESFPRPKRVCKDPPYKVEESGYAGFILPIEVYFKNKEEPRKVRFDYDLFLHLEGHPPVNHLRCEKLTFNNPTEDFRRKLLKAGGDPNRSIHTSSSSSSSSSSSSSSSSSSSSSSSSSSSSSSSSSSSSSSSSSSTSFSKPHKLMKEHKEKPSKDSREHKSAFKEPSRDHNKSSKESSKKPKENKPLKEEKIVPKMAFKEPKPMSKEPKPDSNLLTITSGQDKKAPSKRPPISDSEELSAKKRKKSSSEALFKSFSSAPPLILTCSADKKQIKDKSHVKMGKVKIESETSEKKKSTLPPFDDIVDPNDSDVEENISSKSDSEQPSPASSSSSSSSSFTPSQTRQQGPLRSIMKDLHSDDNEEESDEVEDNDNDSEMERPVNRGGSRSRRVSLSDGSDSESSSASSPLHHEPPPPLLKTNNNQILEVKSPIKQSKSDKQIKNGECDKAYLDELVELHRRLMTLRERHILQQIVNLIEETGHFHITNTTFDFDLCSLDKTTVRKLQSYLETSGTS
Ecoli rRNA inh OD600 – recorded beside Ecoli rRNA inh, whose call it bears; OD600 change, %; measured here: OD600 growth;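 optical density of the mix in the first replicate; 0 = DMSO median and -100 = no signal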
Ecoli rRNA inh RFP – further read-out of Ecoli rRNA inh, marked with its call; RFP signal change, %; measured here: RFP humanized mutant strains;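 first replicate; 0 = DMSO median and -100 = no signal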
Numbers without * were called inactive; i = inactive; / = no result given. An excerpt; rates above refer to the full screens.

SMILES | E coli growth | Ecoli rRNA inh | Ecoli rRNA inh OD600 | Ecoli rRNA inh RFP | Beta apoptosis | FGF22 binding | UCH37 inh | A1 inh | T cruzi repl | AF4-AF9 inh
Cc1c(/C(O)=C2\C(=O)C(=O)N(CCCN(C)C)C2c2ccco2)cnn1-c1ccccc1 (centres undefined) | 0.69 | 8 | 12 | 1.1 | / | i | 5.6 | / | / | -3.1
Cc1[nH]n(-c2ccccc2)c(=O)c1C=Nc1ccc(S(=O)(=O)N=C(N)N)cc1 | 0.68 | 5 | 5 | 1.3 | -1 | i | 10 | 0.6 | -6 | -1.3
Cc1cc(C)nc(NNS(=O)(=O)c2ccc(Cl)cc2)n1 | / | 22 | 11 | 6.2 | 2 | i | / | 1.5 | / | -10
Nc1nc2nc(SCC(=O)N3CCCc4ccccc43)[nH]c2c(=O)[nH]1 | 0.67 | / | / | / | 10 | / | 0.8 | 0.7 | -9 | /
FC(F)(F)c1ccnc(Sc2n[nH]c(C(F)(F)F)n2)c1 | 0.63 | -25* | -19* | -5.1* | 10 | i | 0.9 | -2.1 | -8 | -3.6
CN(CCc1ccccn1)S(=O)(=O)c1ccc(F)cc1 | 0.68 | / | / | / | 3 | / | 3.6 | 0.1 | 2 | /
COC(=O)c1cc2ccccc2c(-c2c(O)ccc3ccccc23)c1O | 0.59 | / | / | / | 1 | / | 3.2 | 2.0 | 11 | /
Brc1ccc(Oc2ncc(CN3CCOCC3)s2)cc1 | 0.7 | / | / | / | -4 | / | 1.6 | -0.5 | 0 | /
COC(=O)C1C2C=CC3(CN(Cc4cccs4)C(=O)C13)O2 (centres undefined) | 0.68 | / | / | / | -13 | / | 0.2 | 0.1 | -1 | /
Cc1nn(-c2ccccc2)c(N)c1C(O)(CC(=O)C(F)(F)F)C(F)(F)F (centres undefined) | 0.66 | / | / | / | / | / | -6.5 | 1.3 | -12 | /
Nc1cccc(P(=O)(c2ccccc2)c2ccccc2)c1 | 0.67 | 1 | 3 | -3.7 | 1 | i | 3.4 | -0.2 | 6 | 4.9
CN1C(=O)CSc2ccc(NC(=O)Nc3ccccn3)cc21 | 0.73 | 0 | 1 | 7.6 | -5 | i | 1.4 | -3.9 | 2 | 1.1
CS(=O)c1nc(-c2ccc(Br)cc2)cc(-c2ccccc2)c1C#N (centres undefined) | 0.65 | 8 | -2 | 0.4 | 12 | i | 1.1 | 0.1 | 15 | 1.8
CCOC(=O)c1c(C)n(C)c2ccc(OC)c(NC(=O)CCN3CCSCC3)c12 | 0.68 | / | / | / | / | / | 1.6 | -0.6 | 9 | /
COc1ccc(-c2nc3c(n2O)CCCC3=O)cc1OC | 0.76 | / | / | / | 0 | / | -46 | -1.0 | -1 | /
NC(=O)c1ccccc1N | 0.78 | / | / | / | 1 | i | -114 | 0.6 | -11 | -0.5
CC(OC(=O)c1ccccc1O)C(=O)Nc1cccc(Cl)c1 (centres undefined) | / | 30 | 22 | 2.9 | -6 | / | / | -0.9 | -13 | 0.2
COC(=O)c1sc(NC(=O)COc2cccnc2[N+](=O)[O-])c(C(=O)OC)c1C | 0.71 | -1 | -1 | 2.1 | 11 | i | 0.8 | 0.4 | / | -3.5
Cc1cc(NC(=O)CC#N)n(-c2nc3ccccc3[nH]2)n1 | 0.7 | 9 | 9 | -1.4 | -5 | i | 0.9 | 0.3 | -10 | 4.9
CC(C)CN(CC(C)C)C(=O)Cc1coc2ccc3ccccc3c12 | 0.74 | / | / | / | -9 | / | -1.7 | 0.7 | 13 | /
CCc1c(C)nc(SCC(=O)c2ccc(C)c(C)c2)[nH]c1=O | 0.68 | 2 | 0 | -5.2 | -8 | i | 5.1 | -0.5 | -6 | -23
O=C(CNC1CCCC1)Nc1ccc(N2CCCCCC2)cc1 | 0.64 | 0 | -8 | 8.9 | -4 | i | 2.2 | 0.4 | 12 | 44*
Cc1ccc(Nc2nc(N3CCOCC3)nc(N3CCOCC3)n2)cc1C | 0.7 | 10 | 8 | 0.4 | 1 | i | 0.7 | 2.0 | -9 | 0.6
COc1ccc(-c2nnc(-c3cccnc3)o2)cc1 | 0.68 | / | / | / | 1 | / | -25 | -4.4 | -10 | /
CCn1c(=O)c(CCC(=O)NCC2CCCO2)c(C)c2c(C)nn(-c3ccccc3)c21 (centres undefined) | 0.68 | -4 | -8 | -2.0 | 16 | i | 3.6 | -1.3 | -1 | -2.6

Random excerpt: two entries already listed
SMILES | E coli growth | Ecoli rRNA inh | Ecoli rRNA inh OD600 | Ecoli rRNA inh RFP | Beta apoptosis | FGF22 binding | UCH37 inh | A1 inh | T cruzi repl | AF4-AF9 inh
CCc1c(C)nc(SCC(=O)c2ccc(C)c(C)c2)[nH]c1=O | 0.68 | 2 | 0 | -5.2 | -8 | i | 5.1 | -0.5 | -6 | -23
CS(=O)c1nc(-c2ccc(Br)cc2)cc(-c2ccccc2)c1C#N (centres undefined) | 0.65 | 8 | -2 | 0.4 | 12 | i | 1.1 | 0.1 | 15 | 1.8

The listing continues.
SMILES | E coli growth | Ecoli rRNA inh | Ecoli rRNA inh OD600 | Ecoli rRNA inh RFP | Beta apoptosis | FGF22 binding | UCH37 inh | A1 inh | T cruzi repl | AF4-AF9 inh
CCOC(=O)c1c(/N=C/N(C)C)sc(C=O)c1-c1ccccc1 | / | 8 | -2 | -3.0 | 0 | i | / | -0.1 | 17 | 0.7
Cc1[nH]c(=O)[nH]c(=O)c1S(=O)(=O)N1CCCC1 | 0.78 | / | / | / | -3 | / | 1.5 | -0.1 | -13 | /
Cc1ccc(CCNC(=O)C2CCN(S(=O)(=O)c3cccc4nsnc34)CC2)cc1 | 0.71 | / | / | / | / | / | 3.8 | 0.5 | 6 | /
COCCc1ncc(CN2CCCC(C(=O)Nc3cccc(-c4cccc(C)c4)c3)C2)cn1 (centres undefined) | 0.65 | -4 | -40 | -2.0 | / | i | 0.7 | -0.1 | 18 | 1.6
O=C(O)CCn1c(-c2ccccc2)cc2ccccc21 | 0.69 | -20 | -4 | -2.0 | -1 | i | -5.8 | -0.3 | -9 | -3.6
CCCCN(C(=O)NC(=O)Nc1nc2ccc(OC)cc2s1)S(C)(=O)=O | 0.67 | 9 | 4 | -2.2 | 3 | i | -0.5 | -2.3 | 24 | 3.6
COCCN(C(=S)Nc1cc(C)cc(C)c1)C(C)c1cccnc1 (centres undefined) | 0.69 | / | / | / | -8 | / | 4.9 | 0.2 | -3 | /
O=C1CC(Nc2ccccc2)C(=O)N1c1ccc(N2CCOCC2)cc1 (centres undefined) | 0.69 | / | / | / | -4 | / | 1.4 | 0.3 | / | /
O=C1NN(c2ccc(F)cc2)C(=O)/C1=C/c1cccs1 | 0.69 | 4 | 3 | -3.9 | -1 | / | 11 | 1.0 | 1 | -0.2
CCCCCCCOc1ccc(-c2ccc(C#N)cn2)cc1 | 0.68 | 7 | 10 | -0.3 | 2 | i | -124 | -0.7 | -9 | 8.8
CCC1(O)CCCC2C3CCC4CC(=O)CCC4(C)C3C(=O)CC21C (centres undefined) | 0.65 | 0 | -24 | -4.9 | / | i | 3.3 | / | / | -1.4
COCCN(CCOC)CC(O)COC(c1ccccc1)c1ccccc1 (centres undefined) | 0.69 | / | / | / | -3 | / | 1.8 | -1.6 | 0 | /
CC1(C)CN(c2ccsc2C(=O)O)C1=O | 0.68 | 16 | 16 | -1.6 | -2 | i | -2.7 | -0.1 | -20 | -2.6
CN(Cc1ccccc1)CC(O)COc1ccc(CNCCOc2cccnc2)cc1 (centres undefined) | 0.66 | 4 | -2 | -1.9 | 8 | i | 6.5 | 0.9 | 44 | 7.3
CC(CCc1ccccc1)NC(=O)CCNC(=O)c1ccccc1Cl (centres undefined) | 0.71 | 15 | 8 | 2.5 | 4 | i | 0.5 | 0.8 | / | -0.3
Cc1ccc2sc(C)[n+](CCC(C)S(=O)(=O)[O-])c2c1 (centres undefined) | / | / | / | / | -14 | / | 0.2 | 0.1 | -17 | /
CCC(C)NC(=O)C1CC(c2ccc(OC)cc2)=NO1 (centres undefined) | 0.76 | / | / | / | -1 | / | 4.6 | 0.6 | -1 | /
CCOc1ccc(C(C)C)cc1S(=O)(=O)n1nc(C)cc1C | 0.71 | / | / | / | 0 | / | 4.1 | 0.5 | 17 | /
CCNc1ccccc1CP(=O)(c1ccccc1)c1ccccc1O (centres undefined) | / | 7 | 7 | 17 | 4 | i | / | -0.2 | 2 | -3.8
CCn1nc(C(=O)Nc2ccc(C)c(C)c2)c(Cl)c1Cl | 0.7 | / | / | / | 3 | / | -2.9 | -0.4 | -14 | /
Cc1cccc(N2C(=O)C(O)=C(C(=O)c3cccs3)C2c2ccc(F)cc2)n1 (centres undefined) | 0.72 | -1 | -7 | -0.6 | -4 | i | 1.5 | -0.7 | 12 | 0.8
Cc1nnc(NC(=O)CSc2nc(N)c(NC(=O)c3cccs3)c(=O)[nH]2)s1 | 0.67 | 10 | 2 | -1.9 | -4 | i | -0.8 | 0.1 | 0 | 8.7
CC1CC2c3cccc(C(=O)O)c3C(=O)N2c2ccc(Cl)cc21 (centres undefined) | / | 0 | 2 | -5.2 | -2 | i | / | -0.1 | -13 | -3.2
O=C(CN1C(=O)NC2(CCCCCCC2)C1=O)Nc1c(Cl)cccc1Cl | 0.67 | 6 | 11 | 0.9 | -4 | i | 1.1 | -0.4 | / | -2.5
CC(C)c1ccc(C(O)Cc2nc3ccccc3n2C)cc1 (centres undefined) | 0.62 | 13 | -1 | 3.5 | -1 | i | 2.4 | 0.4 | -9 | 4.2

Entries above that bear a hit mark in AF4-AF9 inh:
SMILES | E coli growth | Ecoli rRNA inh | Ecoli rRNA inh OD600 | Ecoli rRNA inh RFP | FGF22 binding | UCH37 inh | AF4-AF9 inh
O=C(CNC1CCCC1)Nc1ccc(N2CCCCCC2)cc1 | 0.64 | 0 | -8 | 8.9 | i | 2.2 | 44*

Next entries follow:
SMILES | E coli growth | Ecoli rRNA inh | Ecoli rRNA inh OD600 | Ecoli rRNA inh RFP | Beta apoptosis | FGF22 binding | UCH37 inh | A1 inh | T cruzi repl | AF4-AF9 inh
Cc1ccc(C(=O)N2CCC(C(=O)Nc3cccc([N+](=O)[O-])c3)CC2)cc1 | 0.75 | -5 | 3 | -0.2 | 4 | i | 1.7 | 0.8 | -8 | 0.6
CCc1ccc(N(C(=O)c2ccco2)C(C(=O)NC2CCCC2)c2ccco2)cc1 (centres undefined) | 0.79 | / | / | / | 4 | / | -0.1 | 0.5 | 12 | /
COc1ccc(CC(=O)Nc2cccc(C(C)=O)c2)cc1S(=O)(=O)N1CCOCC1 | 0.69 | 6 | 6 | -1.2 | 1 | i | 0.8 | 2.0 | / | -1.8
CC(C)(C)N(Cc1ccccc1)C(=O)COC(=O)/C=C/c1ccc2c(c1)OCO2 | 0.68 | 7 | 9 | -1.2 | -2 | i | 0.1 | 0.4 | / | -0.9
CCn1c(C)c(C)c2cc(C(=O)NCCCN3CCCCC3)ccc21 | 0.71 | 1 | 8 | 3.2 | -1 | i | -1.5 | 1.2 | 11 | 11
COc1cccc(C(=O)/C=C/c2ccc(SC)cc2)c1 | 0.7 | -15 | -9 | 4.0 | -3 | i | 3.9 | -0.2 | 8 | -5.5
Cc1cc(-n2cnc(-c3cn[nH]c3C)n2)no1 | 0.64 | 1 | 7 | -0.4 | -3 | / | 0.3 | 0.9 | -18 | 1.4
CC(=O)Oc1ccc2nc(/C=C/c3ccccc3)oc(=O)c2c1 | 0.73 | 5 | 11 | 0.4 | 2 | i | -23 | -4.2 | -5 | 1.9

From PubChem BioAssay
